A1 apoptosis 2 – compounds inhibiting A1, read as caspase activation; 24,000 tested, under 10 active; MEF A1-2A-BIM cells, caspase-Glo luminescence, 3 h; percent of clofoctol response, DMSO zero; caspase activation, % (test concentration not listed); in the data active = caspase activation above about 5.9%;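 also: wells of about 30 µL received 50 nL stock; the first replicate is given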
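Material: mouse embryonic fibroblasts co-expressing A1 and BIM (A1-2A-BIM), primed for A1 dependence / Quantity: 2500 cells/well / Buffer or medium: RPMI-1640 growth medium with 10% FBS / Doses: 50 nL compound per well, pinned / Schedule: 3 h compound exposure at 37 °C / Signal: Caspase-Glo luminescence (DEVD substrate) / Measure: Caspase-3/7 activation, seen as rise in luminescence signal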
Starred values were filed as active, the others as inactive. These rows are one share of the data; rates above refer to the full screens.

SMILES	A1 apoptosis 2
C[C@@H]1CN([C@H](C)CO)C(=O)Cc2cc(NC(=O)Nc3ccc4c(c3)OCO4)ccc2O[C@@H]1CN(C)C	-1.0
C[C@H](CO)N1C[C@H](C)[C@@H](CN(C)Cc2ccc(C(F)(F)F)cc2)OCCCC[C@H](C)Oc2ccc(NC(=O)c3ccncc3)cc2C1=O	-1.4
C[C@H](CO)N1C[C@H](C)[C@H](CN(C)S(C)(=O)=O)Oc2ccc(NC(=O)Cn3cnnn3)cc2C1=O	-0.2
C[C@@H]1CN([C@H](C)CO)C(=O)c2cccc(NC(=O)c3ccc(-c4nccs4)cc3)c2O[C@@H]1CN(C)S(=O)(=O)c1cccs1	-0.9
C[C@H]1CN([C@@H](C)CO)C(=O)Cc2cc(NC(=O)c3ccncc3)ccc2O[C@H]1CN(C)CC1CC1	-0.3
C[C@@H]1CN([C@@H](C)CO)C(=O)c2cccc(NC(=O)C3CCCCC3)c2O[C@@H]1CN(C)C(=O)Nc1ccc2c(c1)OCO2	-1.5
O=C1CC[C@@H]2c3[nH]c4ccc(F)cc4c3CCN12	0.4
C[C@@H]1CCCCO[C@@H](CN(C)C)[C@H](C)CN([C@@H](C)CO)C(=O)c2cc(NC(=O)Nc3ccc4c(c3)OCO4)ccc2O1	0.5
Cc1cc(C(=O)Nc2cccc3c2O[C@@H](CN(C)Cc2ccc4c(c2)OCO4)[C@H](C)CN([C@@H](C)CO)C3=O)n(C)n1	-1.1
CNC[C@@H]1OCCCC[C@@H](C)Oc2ccc(N(C)C)cc2C(=O)N([C@@H](C)CO)C[C@H]1C	-0.8

Copied from the list.
A1 apoptosis 2, `C[C@@H]1CN([C@H](C)CO)C(=O)c2cccc(NC(=O)c3ccc(-c4nccs4)cc3)c2O[C@@H]1CN(C)S(=O)(=O)c1cccs1` is entered as -0.9
A1 apoptosis 2, `C[C@@H]1CN([C@@H](C)CO)C(=O)c2cccc(NC(=O)C3CCCCC3)c2O[C@@H]1CN(C)C(=O)Nc1ccc2c(c1)OCO2` is entered as -1.5

(continued)
SMILES	A1 apoptosis 2
C[C@@H]1CN([C@H](C)CO)C(=O)CCCn2nncc2CO[C@@H]1CN(C)Cc1ccccc1C(=O)O	0.7
C[C@@H]1CCCCO[C@@H](CN(C)S(=O)(=O)c2cn(C)cn2)[C@@H](C)CN([C@@H](C)CO)C(=O)c2cc(NC(=O)Nc3cccc4ccccc34)ccc2O1	1.5
C[C@H](CO)N1C[C@H](C)[C@@H](CN(C)CC2CCCCC2)OCCCC[C@H](C)Oc2ccc(NC(=O)Nc3ccc(F)cc3)cc2C1=O	-2.0
C[C@@H]1CN([C@@H](C)CO)C(=O)c2cc(NC(=O)NC3CCCCC3)ccc2O[C@@H]1CN(C)Cc1ccncc1	-0.6
COC(=O)CCCCCCC(=O)N/N=C/C1=CC[C@H]2C[C@@H]1C2(C)C	0.3
C=CCC/C=N/NC(=O)CCCCCCC(=O)O	-0.4
C[C@@H]1CN([C@H](C)CO)C(=O)c2cccc(NS(=O)(=O)c3ccccc3)c2O[C@H]1CN(C)Cc1ccncc1	-0.9
C[C@@H]1CN([C@@H](C)CO)C(=O)c2cccc(NC(=O)Nc3ccc(C(F)(F)F)cc3)c2O[C@H]1CN(C)C(=O)Nc1ccc(F)cc1	-1.0
COc1ccc(CN(C)C[C@@H]2Oc3ccc(NC(=O)Nc4ccccc4)cc3C(=O)N([C@@H](C)CO)C[C@H]2C)cc1	0.4
C[C@@H]1CCCCO[C@H](CN(C)Cc2ccccc2)[C@H](C)CN([C@@H](C)CO)C(=O)c2cc(NC(=O)CCCN(C)C)ccc2O1	-0.1

Random excerpt: two records from the list
SMILES	A1 apoptosis 2
C[C@@H]1CCCCO[C@@H](CN(C)S(=O)(=O)c2cn(C)cn2)[C@@H](C)CN([C@@H](C)CO)C(=O)c2cc(NC(=O)Nc3cccc4ccccc34)ccc2O1	1.5
C[C@@H]1CCCCO[C@H](CN(C)Cc2ccccc2)[C@H](C)CN([C@@H](C)CO)C(=O)c2cc(NC(=O)CCCN(C)C)ccc2O1	-0.1

(cont.)
SMILES	A1 apoptosis 2
CN(C)CCCOc1ccc(/C=N/NC(=O)CCCCC(=O)NO)cc1	1.2
C[C@@H]1CCCCO[C@H](CN(C)Cc2ccncc2)[C@@H](C)CN([C@@H](C)CO)C(=O)c2cc(NC(=O)C3CCCCC3)ccc2O1	0.6
C[C@@H]1CN([C@@H](C)CO)C(=O)c2cc(NC(=O)Nc3ccc(F)cc3)ccc2O[C@@H](C)CCCCO[C@H]1CN(C)C	0.4
C[C@@H]1CN([C@@H](C)CO)C(=O)c2cc(NC(=O)NC3CCCCC3)ccc2O[C@@H]1CN(C)C(=O)Nc1ccc(F)cc1	-0.5
C[C@H](CO)N1C[C@H](C)[C@H](CN(C)C(=O)CCCN(C)C)OCCCC[C@H](C)Oc2ccc(NC(=O)c3ccncc3)cc2C1=O	0.0
C[C@@H]1CN([C@H](C)CO)C(=O)Cc2cc(NC(=O)CCC(F)(F)F)ccc2O[C@@H]1CN(C)Cc1ccc2c(c1)OCO2	0.1
Cc1noc(C)c1NC(=O)Nc1ccc2c(c1)C(=O)N([C@@H](C)CO)C[C@H](C)[C@@H](CN(C)Cc1ccc(Cl)c(Cl)c1)O2	0.4
COc1ccc(S(=O)(=O)N(C)C[C@@H]2OCCCC[C@H](C)Oc3ccc(NS(C)(=O)=O)cc3C(=O)N([C@@H](C)CO)C[C@H]2C)cc1	-0.8
CC(C)(C)/C=N/NC(=O)CCCCCCC(=O)Nc1ccccc1O	-0.5
C[C@@H]1CN([C@H](C)CO)C(=O)Cc2cc(NS(=O)(=O)c3ccccc3)ccc2O[C@H]1CN(C)S(=O)(=O)c1ccc(F)cc1	0.6
C[C@H](CO)N1C[C@H](C)[C@H](CN(C)S(=O)(=O)c2cccs2)Oc2ccc(NC(=O)Nc3ccc(F)cc3)cc2C1=O	-0.1
COc1ccc(NC(=O)Nc2ccc3c(c2)C(=O)N([C@@H](C)CO)C[C@H](C)[C@@H](CN(C)C(=O)Nc2ccccc2)OCCCC[C@H](C)O3)cc1	-1.4
C[C@@H]1CCCCO[C@@H](CN(C)Cc2ccncc2)[C@H](C)CN([C@H](C)CO)C(=O)c2cc(NC(=O)CCC(F)(F)F)ccc2O1	1.1
C[C@@H]1CCCCO[C@H](CN(C)C(=O)Nc2ccc(C(F)(F)F)cc2)[C@@H](C)CN([C@H](C)CO)C(=O)c2cc(NC(=O)Cc3ccccc3)ccc2O1	-1.9
C[C@@H]1CCCCO[C@@H](CN(C)C(=O)c2ccncc2)[C@H](C)CN([C@@H](C)CO)C(=O)c2cc(NS(C)(=O)=O)ccc2O1	0.0
CC(/C=C/C(=O)NO)=C\c1ccccc1OCc1ccc(COc2ccc3ccncc3c2)cc1	-0.8
Cc1noc(C)c1NC(=O)Nc1cccc2c1O[C@H](CN(C)S(=O)(=O)c1cccs1)[C@H](C)CN([C@H](C)CO)C2=O	1.6
CC(C)NC(=O)N(C)C[C@H]1Oc2c(NS(C)(=O)=O)cccc2C(=O)N([C@H](C)CO)C[C@@H]1C	-0.2
CC(C)NC(=O)Nc1ccc2c(c1)C(=O)N([C@@H](C)CO)C[C@@H](C)[C@H](CN(C)Cc1ccc(Cl)c(Cl)c1)OCCCC[C@H](C)O2	-1.3
C[C@@H]1CCCCO[C@@H](CN(C)C(=O)CCC(F)(F)F)[C@H](C)CN([C@@H](C)CO)C(=O)c2cc(N(C)C)ccc2O1	0.0
COc1ccc(S(=O)(=O)Nc2ccc3c(c2)C(=O)N([C@H](C)CO)C[C@@H](C)[C@@H](CN(C)Cc2ccc(Cl)c(Cl)c2)OCCCC[C@H](C)O3)cc1	-1.1
C[C@@H]1CN([C@H](C)CO)C(=O)c2cc(NC(=O)Nc3ccc4c(c3)OCO4)ccc2O[C@H]1CN(C)Cc1ccc(Cl)c(Cl)c1	-0.8
C[C@H]1CN([C@@H](C)CO)C(=O)Cc2cc(NC(=O)C3CC3)ccc2O[C@@H]1CN(C)S(=O)(=O)c1cn(C)cn1	-0.8
Cc1noc(C)c1NC(=O)Nc1ccc2c(c1)C(=O)N([C@H](C)CO)C[C@H](C)[C@@H](CN(C)C(=O)C1CCCCC1)OCCCC[C@@H](C)O2	0.3
COC(=O)CCCCCCC(=O)N/N=C/c1ccc(OC)cc1OC	0.2
C[C@@H]1CN([C@H](C)CO)C(=O)c2cc(NS(C)(=O)=O)ccc2O[C@@H]1CN(C)S(C)(=O)=O	0.0
C[C@@H]1CN([C@@H](C)CO)C(=O)c2cccc(NC(=O)CCCCCC(=O)Nc3ccccc3N)c2O[C@@H]1CN(C)C(=O)NC1CCCCC1	1.1
C[C@@H]1CN([C@H](C)CO)C(=O)c2cc(N(C)C)ccc2O[C@@H](C)CCCCO[C@H]1CN(C)Cc1ccccc1	-0.3
C[C@@H]1CN([C@@H](C)CO)C(=O)Cc2cc(NC(=O)Nc3ccc(C(F)(F)F)cc3)ccc2O[C@@H]1CN(C)C(=O)NC1CCCCC1	-0.3
COc1ccc(NC(=O)N(C)C[C@@H]2OCCCC[C@@H](C)Oc3ccc(NC(=O)Nc4ccc(C(F)(F)F)cc4)cc3C(=O)N([C@H](C)CO)C[C@H]2C)cc1	0.0

Part of the list above in order of number of heavy atoms, low to high.
SMILES	A1 apoptosis 2
C[C@@H]1CN([C@H](C)CO)C(=O)c2cc(NS(C)(=O)=O)ccc2O[C@@H]1CN(C)S(C)(=O)=O	0.0
C[C@H]1CN([C@@H](C)CO)C(=O)Cc2cc(NC(=O)C3CC3)ccc2O[C@@H]1CN(C)S(=O)(=O)c1cn(C)cn1	-0.8
Cc1noc(C)c1NC(=O)Nc1ccc2c(c1)C(=O)N([C@H](C)CO)C[C@H](C)[C@@H](CN(C)C(=O)C1CCCCC1)OCCCC[C@@H](C)O2	0.3

Additional structures
SMILES	A1 apoptosis 2
C[C@@H]1CN([C@@H](C)CO)C(=O)c2cc(NC(=O)NC3CCCCC3)ccc2O[C@@H]1CN(C)S(=O)(=O)c1ccc(Cl)cc1	2.0
Cc1noc(C)c1S(=O)(=O)Nc1ccc2c(c1)CC(=O)N([C@@H](C)CO)C[C@H](C)[C@H](CN(C)S(=O)(=O)c1ccc(Cl)cc1)O2	-0.2
COc1ccc(S(=O)(=O)N(C)C[C@H]2Oc3ccc(NS(=O)(=O)c4ccccc4)cc3C(=O)N([C@H](C)CO)C[C@H]2C)cc1	0.4
CC(C)NC(=O)N(C)C[C@@H]1OCCCC[C@H](C)Oc2ccc(NC(=O)CCCN(C)C)cc2C(=O)N([C@H](C)CO)C[C@@H]1C	1.0
Cc1noc(C)c1S(=O)(=O)Nc1ccc2c(c1)C(=O)N([C@H](C)CO)C[C@H](C)[C@H](CN(C)C(=O)Nc1ccc3c(c1)OCO3)O2	-1.5
Cc1ccc(S(=O)(=O)N(C)C[C@@H]2Oc3c(NS(=O)(=O)c4ccc(Cl)cc4)cccc3C(=O)N([C@H](C)CO)C[C@H]2C)cc1	0.6
COc1ccc(S(=O)(=O)Nc2ccc3c(c2)CC(=O)N([C@H](C)CO)C[C@@H](C)[C@H](CN(C)C(=O)Nc2ccc4c(c2)OCO4)O3)cc1	-1.4
Cc1ccc(S(=O)(=O)N(C)C[C@@H]2Oc3c(cccc3N(C)C)C(=O)N([C@H](C)CO)C[C@@H]2C)cc1	-0.2
O=C(O)CCCCCCC(=O)N/N=C/c1ccco1	0.5
CNC[C@H]1OCCCC[C@H](C)Oc2ccc(NS(C)(=O)=O)cc2C(=O)N([C@H](C)CO)C[C@@H]1C	-1.2

Reprinted from the part before: two entries, then new ones.
SMILES	A1 apoptosis 2
O=C(O)CCCCCCC(=O)N/N=C/c1ccco1	0.5
CNC[C@H]1OCCCC[C@H](C)Oc2ccc(NS(C)(=O)=O)cc2C(=O)N([C@H](C)CO)C[C@@H]1C	-1.2
Cc1noc(C)c1NC(=O)Nc1ccc2c(c1)C(=O)N([C@@H](C)CO)C[C@@H](C)[C@H](CN(C)Cc1ccccc1)O2	1.5
C[C@H](CO)N1C[C@H](C)[C@@H](CN(C)C(=O)Nc2ccccc2)OCCCC[C@H](C)Oc2ccc(NC(=O)Nc3ccccc3)cc2C1=O	-0.6
C[C@@H]1CN([C@H](C)CO)C(=O)CCCn2nncc2CO[C@H]1CN(C)C(=O)Nc1ccc(-c2cccs2)cc1	0.0
C[C@@H]1CCCCO[C@@H](CN(C)C(=O)NC2CCCCC2)[C@H](C)CN([C@H](C)CO)C(=O)c2cc(NC(=O)Cc3ccccc3)ccc2O1	-0.3
C[C@@H]1CN([C@@H](C)CO)C(=O)c2cc(NC(=O)Nc3cccc4ccccc34)ccc2O[C@@H](C)CCCCO[C@H]1CN(C)Cc1ccc(Cl)c(Cl)c1	-0.5
Cc1noc(C)c1NC(=O)Nc1cccc2c1O[C@H](CN(C)S(=O)(=O)c1cn(C)cn1)[C@H](C)CN([C@H](C)CO)C2=O	-0.6
C[C@H]1CN([C@@H](C)CO)C(=O)c2cc(NC(=O)Cn3cnnn3)ccc2O[C@@H]1CN(C)Cc1ccc(C(=O)O)cc1	-0.3
COc1ccc(S(=O)(=O)Nc2ccc3c(c2)C(=O)N([C@@H](C)CO)C[C@@H](C)[C@H](CN(C)Cc2ccc(Cl)c(Cl)c2)O3)cc1	-0.9
Cc1noc(C)c1NC(=O)Nc1cccc2c1O[C@H](CN(C)C(=O)Nc1ccc(F)cc1)[C@H](C)CN([C@@H](C)CO)C2=O	0.6
C[C@@H]1CN([C@@H](C)CO)C(=O)c2cc(NC(=O)NC3CCCCC3)ccc2O[C@H]1CN(C)Cc1ccncc1	-0.1
COc1ccc(S(=O)(=O)Nc2ccc3c(c2)C(=O)N([C@H](C)CO)C[C@H](C)[C@H](CN(C)S(C)(=O)=O)OCCCC[C@@H](C)O3)cc1	-0.6
COc1ccc(NC(=O)N(C)C[C@H]2OCCCC[C@H](C)Oc3ccc(NS(=O)(=O)c4ccccc4)cc3C(=O)N([C@H](C)CO)C[C@@H]2C)cc1	0.0
C[C@@H]1CCCCO[C@@H](CN(C)Cc2ccc3c(c2)OCO3)[C@@H](C)CN([C@@H](C)CO)C(=O)c2cc(NS(=O)(=O)c3ccccc3)ccc2O1	1.0
